Source: PubChem BioAssay (several laboratories)
ALR H2O2 inh: human ALR oxidase inhibition via reduced H2O2. purified ALR, DTT oxidation, H2O2 HRP-luminol luminescence. inhibition, % (test concentration not listed). hit rate 3.8% among 290,000;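 active = mean and each replicate at 75% or more; inconclusive = only one of the two met; inactive = neither met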;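 also: stock transfer was 7.5 nL into about 7.5 µL; 0% = neutral wells and 100% = wells with inactivated enzyme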
HNF4A DNA FP: change in binding of human HNF4 alpha to DNA. hit rate 0.3% among 360,000. HNF4a-FITC DNA binding, fluorescence polarization, 1 h. P41235. activity change, % at 10 µM; in the data active = activity change above about 30%, passing the limit was not always enough;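 also: controls were the assay level and a saturating level of protein; the project sought stronger binding though the title names inhibitors; some compounds called inactive have numbers as strong as hits; positive values seem to mean higher polarization but the record does not say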
Target sequence (P41235 whole entry, looked up): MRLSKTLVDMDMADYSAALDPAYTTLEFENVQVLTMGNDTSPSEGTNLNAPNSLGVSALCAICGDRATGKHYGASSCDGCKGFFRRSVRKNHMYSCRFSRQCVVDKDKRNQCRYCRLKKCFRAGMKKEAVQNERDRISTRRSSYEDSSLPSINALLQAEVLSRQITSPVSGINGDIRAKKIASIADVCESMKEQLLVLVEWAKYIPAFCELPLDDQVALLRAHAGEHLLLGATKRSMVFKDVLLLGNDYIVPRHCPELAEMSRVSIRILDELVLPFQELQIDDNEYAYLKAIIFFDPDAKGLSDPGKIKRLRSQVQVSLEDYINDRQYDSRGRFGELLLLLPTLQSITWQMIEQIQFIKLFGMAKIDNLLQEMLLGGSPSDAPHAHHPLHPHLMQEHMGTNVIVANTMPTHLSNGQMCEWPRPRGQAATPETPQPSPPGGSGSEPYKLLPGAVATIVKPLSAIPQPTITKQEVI
RanGTP-Impb inh: inhibitors of RanGTP-importin-beta interaction, primary screen, biochemical, FRET, CFP-Ran, YFP-importin-beta, homogeneous; cell-free CFP-Ran/YFP-importin-beta FRET ratio; inhibition, % (no concentration beside the values); hit rate 1.1% among 300,000; AID 2216;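 active = most replicates above 15%; inconclusive = exactly half above 15%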;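 also: 0% = DMSO wells and 100% = Ran loaded with GDP instead of GTP; wells of about 40 µL received 100 nL stock; the first replicate is given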
Beta2AR agonist: activates human beta-2 adrenergic receptor causing internalization; P07550; response, % (concentration not given with the values); Am2.2-beta2AR cells, FAP receptor internalization, flow cytometry; reference of the scale not given here; hit rate 0.43% among 340,000;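 active = response above a set limit, near 3 SD of response in nonfluorescent compounds, cut at about 42% in these data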;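 also: stock transfer was 100 nL into about 11 µL; a reference agonist was the positive control; negative values mostly stem from fluorescent compounds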
Target sequence (P07550 whole entry, looked up): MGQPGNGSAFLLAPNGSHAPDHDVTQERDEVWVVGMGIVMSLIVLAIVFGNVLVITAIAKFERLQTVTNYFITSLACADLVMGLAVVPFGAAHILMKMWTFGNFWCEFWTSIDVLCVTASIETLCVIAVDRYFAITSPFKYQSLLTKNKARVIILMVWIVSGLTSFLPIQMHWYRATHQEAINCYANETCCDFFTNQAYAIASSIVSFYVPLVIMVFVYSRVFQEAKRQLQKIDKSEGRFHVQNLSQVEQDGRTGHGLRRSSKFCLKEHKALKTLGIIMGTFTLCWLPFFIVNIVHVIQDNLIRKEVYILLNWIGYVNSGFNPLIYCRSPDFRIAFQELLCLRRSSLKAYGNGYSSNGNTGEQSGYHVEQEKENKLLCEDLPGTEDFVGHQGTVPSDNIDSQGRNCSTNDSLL
Calb FLC: C. albicans growth modulation with fluconazole. growth inhibition, % (test concentration not listed). C. albicans CaCi-2 (fluconazole-resistant clinical isolate) + fluconazole, Alamar Blue growth, 48 h. hit rate 0.57% among 300,000;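 active = most replicates above 75%; inconclusive = exactly half above 75%; inactive = most below 75%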;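 also: all wells also contain fluconazole at 8 µg/ml as a sub-toxic cotreatment; 0% = median of DMSO wells and 100% = median of geldanamycin control wells; wells of about 8 µL received 7.5 nL stock; the first replicate is given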
LANA-H2A inh: blocks KSHV LANA binding to histone H2A/H2B | Q9QR71 | cell-free LANA-H2A/H2B peptide, fluorescence polarization | inhibition, % (test concentration not listed) | hit rate 0.6% among 320,000 | AID 2629; in the data active = inhibition mostly above about 10%, no sharp cut-off; inactive = mostly below about 6.7%;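 also: stock transfer was 7.5 nL into about 10 µL; 0% = median of vehicle wells and 100% = median of positive control wells; one replicate is shown; the record names a cut of 25% in any replicate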
Vif TR-FRET: HIV-1 Vif–A3G interaction blockers – biochemical, TR-FRET, GST-Vif 1-94, biotin-A3G peptide, dose response retest, primary screen (AID 1117319) | TR-FRET GST-Vif / biotin-A3G peptide binding; higher % means a stronger effect; test concentration not given here; strong numbers were not always called active | one-dose inhibition, %; IC50 in µM for titrated hits | hit rate 0.57% among 260,000;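 active = above the screen mean plus three standard deviations and confirmed in dose response; inconclusive = results disagree or hit not tested in dose response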;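 also: Vif residues 1-94 fused to GST binding biotinylated APOBEC3G peptide 110-148; 0% = full assay without inhibitor and 100% = GST in place of GST-Vif; retest series ran down from 100 µM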
Numbers without * were called inactive; ? = inconclusive; nt = no result given; & = joins results of further samples.

1. C#CCOCCOCCOCCNc1nc(N2CCN(C(=O)CCCCCCCCCCNC(=O)Cn3cc(CCCCCN)nn3)CC2)nc(N2CCN(C(=O)CCCCCCCCCCNC(=O)[C@H](CO)n3cc(CCCSC)nn3)CC2)n1
2. COc1ccccc1NS(=O)(=O)c1cccc(NC(=O)c2cncc(Br)c2)c1
3. Fc1ccc(C2Nc3cccc4cccc(c34)N2)cc1
4. COC(=O)[C@H](c1ccccc1Cl)N1CCc2sccc2C1
5. Cc1noc(/C=C/N(C)C)c1S(=O)(=O)N1CCN(c2ccc(F)cc2)CC1
6. Cc1cc(SCCOc2ccc(Br)cc2)nc(N)n1
7. COc1ccc(C(CNC(=O)c2cccc(S(=O)(=O)Nc3ccccc3OC)c2)N2CCOCC2)cc1 (centres undefined)
8. CN(C)c1ccc(/C=C(/C#N)C(=O)Nc2nc3c(s2)CCN(Cc2ccccc2)C3)cc1
Compound	1	2	3	4	5	6	7	8
ALR H2O2 inh	-20	-7	-1	-17	-8	1	0	nt
HNF4A DNA FP	137	3.4	-5.8	2.0	4.8	2.2	1.8	-9.4
RanGTP-Impb inh	nt	nt	2.5	-0.6	2.5	-1.0	3.9	nt
Beta2AR agonist	65*	12	21	-12	0	-6	11	-452
Calb FLC	nt	nt	-1	13	10	7	6	nt
LANA-H2A inh	-13	2.9	5.6	-3.6	-5.6	3.5	3.9	nt
Vif TR-FRET	nt	5%	14%	nt	nt	16%	4%	-13%

9. COc1cc2ccccc2cc1C(=O)Nc1ccc(N2CCN(C(=O)C(C)C)CC2)cc1
10. CN(Cc1ccccc1)S(=O)(=O)c1ccc(Cl)c(C(=O)NCCCN2CCOCC2)c1
11. [O-][n+]1cccc2c(Br)cc(Br)c(O)c21
12. O=C(O)COc1ccc2c(c1)O/C(=C\c1ccco1)C2=O
13. Cc1ccc(NC(=O)CC2COc3ccccc3O2)cc1 (centres undefined)
14. NNC(=O)c1cn2ccccc2n1
15. S=C(NCc1cccnc1)Nc1ccc2c(c1)OCO2
16. CC(C)OC(=O)CN1C(=O)C(=O)c2ccccc21
Compound	9	10	11	12	13	14	15	16
ALR H2O2 inh	5	-11	11	nt	-2	37	11	-23
HNF4A DNA FP	3.6	18	-3.1	-34	-3.0	0.2	1.1	-0.5
RanGTP-Impb inh	5.1	2.3	nt	25*	1.5	-3.1	2.7	3.5
Beta2AR agonist	32	-5	1	-4	1	18	2	7
Calb FLC	-8	4	109*	-4	14	14	-5	-124
LANA-H2A inh	-6.0	5.2	-2.0	2.1	-2.6	1.0	7.3	1.2
Vif TR-FRET	nt	-5%	?	22µM*	-11%	25%	nt	6%

17. Cc1c(Cl)cccc1NC(=S)C(=C([O-])c1ccc(Cl)s1)[n+]1ccccc1
18. Cc1cnc(C(=O)OCC(=O)NC2CCCCCC2)cn1
19. C[C@@H]1CN([C@H](C)CO)C(=O)Cc2cc(NC(=O)Nc3ccccc3)ccc2O[C@@H]1CN(C)C(=O)Nc1ccc2c(c1)OCO2
20. Cc1ccc(NC(=O)C(=O)C2C(=O)Nc3ccccc32)cc1 (centres undefined)
21. Cn1c(C23CC4CC(CC(C4)C2)C3)n[nH]c1=S
22. CCOc1cc(S(=O)(=O)NC2CCCC2)ccc1Cl
23. CCCOC(=O)C1C2C=CC(C3CC23)C1C(=O)OCC(=O)c1ccccc1 (centres undefined)
24. CC(=O)N1CCC(N(CCCOC(C)C)C(=O)Nc2ccc(C)c(C)c2)CC1
Compound	17	18	19	20	21	22	23	24
ALR H2O2 inh	nt	6	-11	3	21	0	-5	1
HNF4A DNA FP	4.4	4.1	2.8	-0.7	0.8	0.1	2.3	-3.9
RanGTP-Impb inh	nt	8.5	nt	0.4	-0.2	nt	?	-1.1
Beta2AR agonist	-85	13	1	-4	-6	-8	3	-3
Calb FLC	nt	2	nt	2	-9	-14	-14	?
LANA-H2A inh	nt	-3.2	-7.1	-3.9	2.8	0.8	2.7	-0.4
Vif TR-FRET	4%	?	nt	?	-1%	-5%	26%	0%

Of the compounds above, these have a halogen:
2. COc1ccccc1NS(=O)(=O)c1cccc(NC(=O)c2cncc(Br)c2)c1
3. Fc1ccc(C2Nc3cccc4cccc(c34)N2)cc1
4. COC(=O)[C@H](c1ccccc1Cl)N1CCc2sccc2C1
5. Cc1noc(/C=C/N(C)C)c1S(=O)(=O)N1CCN(c2ccc(F)cc2)CC1
6. Cc1cc(SCCOc2ccc(Br)cc2)nc(N)n1
10. CN(Cc1ccccc1)S(=O)(=O)c1ccc(Cl)c(C(=O)NCCCN2CCOCC2)c1
11. [O-][n+]1cccc2c(Br)cc(Br)c(O)c21
17. Cc1c(Cl)cccc1NC(=S)C(=C([O-])c1ccc(Cl)s1)[n+]1ccccc1
22. CCOc1cc(S(=O)(=O)NC2CCCC2)ccc1Cl
Compound	2	3	4	5	6	10	11	17	22
ALR H2O2 inh	-7	-1	-17	-8	1	-11	11	nt	0
HNF4A DNA FP	3.4	-5.8	2.0	4.8	2.2	18	-3.1	4.4	0.1
RanGTP-Impb inh	nt	2.5	-0.6	2.5	-1.0	2.3	nt	nt	nt
Beta2AR agonist	12	21	-12	0	-6	-5	1	-85	-8
Calb FLC	nt	-1	13	10	7	4	109*	nt	-14
LANA-H2A inh	2.9	5.6	-3.6	-5.6	3.5	5.2	-2.0	nt	0.8
Vif TR-FRET	5%	14%	nt	nt	16%	-5%	?	4%	-5%

(further entries)
25. OC1(c2ccc(Cl)cc2)CCN(Cc2cn[nH]c2-c2ccccc2)CC1
26. CCOc1ccccc1NC(=O)c1ccc(F)c(S(=O)(=O)N2CCC3(CC2)OCCO3)c1
27. CCCCCCC(=O)N(O)C1CC(=O)N(c2ccc(Br)cc2)C1=O (centres undefined)
28. CCOC(=O)c1cc(C(=O)Nc2cccc(C)c2)nn1C
29. O=C(CN1CCCC1)Nc1ccc(F)cc1
30. Cc1sc2ncnc(SC(C)C#N)c2c1C (centres undefined)
31. COCCNC(=O)C(C)OC(=O)c1cc2occc2n1C (centres undefined)
32. CC(=O)Nc1ccc(Sc2ncccc2C(=O)Nc2ccc(OC(F)(F)F)cc2)cn1
Compound	25	26	27	28	29	30	31	32
ALR H2O2 inh	-3	nt	10	-3	-5	6	12	-7
HNF4A DNA FP	4.3	1.6	0.7	4.0	-3.2	3.6	-0.3	0.8
RanGTP-Impb inh	-1.3	-0.5	-5.0	0.7	2.6	0.9	19*	-1.9
Beta2AR agonist	-7	-10	10	6	5	2	34	11
Calb FLC	-10	-1	-15	-7	20	-1	4	-5
LANA-H2A inh	0.6	1.6	-2.9	2.2	-7.9	1.8	3.9	-0.3
Vif TR-FRET	?	-5%	-11%&65%	8%	7%	-9%	8%	3%

33. COC(=O)C1(C)NC(c2cccc(C)c2)C2C(=O)N(c3ccc(F)cc3)C(=O)C21 (centres undefined)
34. Cc1cc(/C=N/NC(=O)C(=O)NCc2ccccn2)c(C)n1-c1ccccc1
35. CCCn1nc(C(=O)NCCc2ccc(S(N)(=O)=O)cc2)c2ccccc2c1=O
36. COc1ccc(C(=O)CN2C(=O)NC3(CCCCCC3)C2=O)cc1
37. S=C(NCCC(c1ccccc1)c1ccccc1)Nc1ccccc1Cl
38. CC1(C)SC(C)(C)N(C=O)C1C(=O)O (centres undefined)
39. CN(C)C(=O)[C@@H]1C[C@H]1[C@@H](NC(=O)OCc1ccccc1)c1ccccc1
40. COc1ccc(C(=O)NCc2ccccc2CN2CCCC2)cc1S(=O)(=O)N1CCOCC1
Compound	33	34	35	36	37	38	39	40
ALR H2O2 inh	-9	11	-2	nt	0	nt	-8	nt
HNF4A DNA FP	-1.4	-2.2	0.1	-0.8	1.1	2.0	-4.8	-2.3
RanGTP-Impb inh	-1.6	5.7	1.3	?	3.0	nt	0.4	nt
Beta2AR agonist	-9	-11	5	6	3	7	1	2
Calb FLC	-14	12	2	15	4	nt	-5	nt
LANA-H2A inh	3.5	-2.3	-1.3	1.1	1.7	nt	5.4	nt
Vif TR-FRET	nt	nt	16%	5%	10%	-2%	18%	-1%

41. Cc1ccccc1C(=O)N(C)Cc1ccccc1
42. CC1(C)CC(=O)C2=C(C1)Nc1ccccc1N=C2
43. COc1ccc(OC)c2sc(NC(=O)C(C)C)nc12
44. N#CCC(=O)Nc1ccc(C(=O)Nc2ccc3c(c2)OCO3)cc1
45. C=CCNC(=O)c1onc(CSc2cccc(C)c2)c1C(=O)O
46. CCCc1cc(N2CCN(c3ccccn3)CC2)n2nc(C)c(-c3ccccc3)c2n1
47. CCCCCSc1nc2c(c(=O)[nH]c(=O)n2C)n1CC
48. COc1ccccc1C1CC(=O)Oc2cc(C)c(Br)c(C)c21 (centres undefined)
Compound	41	42	43	44	45	46	47	48
ALR H2O2 inh	-4	nt	-22	-4	5	nt	15	nt
HNF4A DNA FP	-1.2	nt	-1.6	6.1	0.6	-1.1	1.6	-1.3
RanGTP-Impb inh	0.7	-5.2	-1.0	nt	3.4	-0.8	4.0	nt
Beta2AR agonist	6	nt	-14	7	2	7	1	8
Calb FLC	-15	8	-1	nt	-2	-9	-2	nt
LANA-H2A inh	5.8	3.5	-0.1	-0.2	-6.6	1.2	-0.2	nt
Vif TR-FRET	25%	?	0%	-3%	14%	?	nt	6%

49. Cc1ncc([N+](=O)[O-])n1Cc1ccc(F)cc1
50. CCc1cccc(CC)c1N(COC)C(=O)Cn1cnc2ccccc21
51. Cc1ccc(OC(=O)CCC(=O)Nc2ccc(C)c(C)c2)cc1
52. Cc1cc(S(=O)(=O)Nc2ccc(C(=O)NCC3(N(C)C)CCCCC3)cc2)ccc1F
53. N#Cc1c(C(F)(F)F)cc(-c2cccs2)nc1N1CCCCC1
54. CC(=O)Nc1ccc(N2C(=O)CC(N3CCN(Cc4ccc5c(c4)OCO5)CC3)C2=O)cc1 (centres undefined)
55. CN(C)c1ccc(NC(=O)c2sc(SCC(=O)Nc3ccc(Br)cc3)nc2N)cc1
56. Brc1ccccc1-c1nnc(CSc2nnc3sc4ccccc4n23)o1
Compound	49	50	51	52	53	54	55	56
ALR H2O2 inh	-6	-3	-1	3	0	-1	3	-3
HNF4A DNA FP	13	-2.7	0.1	16	-10	-2.1	0.2	6.5
RanGTP-Impb inh	3.1	0.0	3.0	3.1	?	2.3	2.7	10
Beta2AR agonist	-6	0	-4	4	2	-3	4	-16
Calb FLC	-6	-31	-4	-6	-33	-5	-2	?
LANA-H2A inh	-3.8	-1.4	-0.1	-1.3	1.2	-2.5	5.6	-1.6
Vif TR-FRET	9%	-6%	nt	-5%	-6%	-5%	-1%	6%

57. CCOC(=O)C1C(c2cc(OC)c(OC)c(OC)c2)NC(=S)NC1(O)C(F)(F)F (centres undefined)
58. Cc1cccc(NC(=O)c2sccc2-n2cccc2)c1C
59. O=C(C1CCN(CCCc2ccccc2)CC1)N(CCc1ccccc1)Cc1ccccc1
60. CCC(=O)NC(=Nc1nc2ccccc2s1)NC(=O)CC
Compound	57	58	59	60
ALR H2O2 inh	-10	0	-6	-3
HNF4A DNA FP	-0.6	-0.3	-0.7	-2.4
RanGTP-Impb inh	-0.9	3.6	8.8	1.6
Beta2AR agonist	-3	1	0	-1
Calb FLC	-1	-1	10	-5
LANA-H2A inh	-7.7	-5.2	0.9	1.1
Vif TR-FRET	-3%	8%	0%	10%

Compounds as they come; 6.3% or so of the library scored in one or more.
